# Screens (PubChem)
# KCNQ2 pot: KCNQ2 (rat) channel potentiation. B-score at 10 µM. O88943. AID 2239. hit rate 0.54% among 310,000. CHO-K1 KCNQ2, FluxOR thallium flux fluorescence; hits give high values;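 active = fluorescence ratio B-score at least 3 SD of library B-scores, with initial fluorescence B-score within 3 SD, cut at about 5.3 in these data; same plate scores as AID 2156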;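 note: B-score of peak minus minimum over baseline fluorescence ratio after K+ and Tl+ stimulus; positive B-score means potentiation of KCNQ2 with more thallium influx and brighter signal; only the inactives scoring about 0 or higher are listed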
# Target sequence (O88943 whole entry, looked up): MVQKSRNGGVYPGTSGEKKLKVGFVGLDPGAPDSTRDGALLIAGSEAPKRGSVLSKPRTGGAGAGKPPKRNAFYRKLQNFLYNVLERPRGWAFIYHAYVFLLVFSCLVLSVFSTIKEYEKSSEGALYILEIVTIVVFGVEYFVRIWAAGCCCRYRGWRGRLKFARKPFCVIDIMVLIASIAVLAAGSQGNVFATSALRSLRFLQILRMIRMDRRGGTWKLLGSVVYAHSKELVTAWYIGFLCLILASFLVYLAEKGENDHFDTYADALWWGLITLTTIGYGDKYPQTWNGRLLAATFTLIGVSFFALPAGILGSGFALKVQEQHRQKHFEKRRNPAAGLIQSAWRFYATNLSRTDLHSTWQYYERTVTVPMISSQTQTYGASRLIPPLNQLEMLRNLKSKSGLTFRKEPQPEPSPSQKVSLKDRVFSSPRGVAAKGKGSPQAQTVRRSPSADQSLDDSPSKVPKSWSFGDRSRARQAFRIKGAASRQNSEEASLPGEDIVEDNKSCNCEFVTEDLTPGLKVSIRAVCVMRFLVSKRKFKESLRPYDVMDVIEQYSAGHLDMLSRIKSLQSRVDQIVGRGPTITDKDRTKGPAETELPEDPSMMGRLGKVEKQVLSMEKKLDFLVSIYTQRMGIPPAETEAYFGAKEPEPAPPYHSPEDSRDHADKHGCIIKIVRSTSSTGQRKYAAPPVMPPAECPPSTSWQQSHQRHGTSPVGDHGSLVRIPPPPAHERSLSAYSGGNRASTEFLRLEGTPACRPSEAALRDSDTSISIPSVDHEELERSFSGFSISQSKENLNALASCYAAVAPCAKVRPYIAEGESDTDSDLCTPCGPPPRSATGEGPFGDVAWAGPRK
# KCNQ2 pot baseline: also measured in KCNQ2 pot; calls as there; B-score; compound at 10 µM; measured here: initial fluorescence intensity artifact check;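 brightness before thallium and not channel activity; 0 = typical well and far values either way flag optical interference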
# Numbers without * were called inactive. Not all compounds are listed; the hit share may differ from the screen's.
smiles | KCNQ2 pot | KCNQ2 pot baseline
O=c1c2cc(N3CCOCC3)ccc2[nH]c(=S)n1CCc1ccccc1 | 0.28 | -1.5
O=C(Cn1cc(S(=O)(=O)Cc2ccc([N+](=O)[O-])cc2)c2ccccc21)N1CCOCC1 | 0.31 | -0.72
CCOc1cc(CNCCc2ccccc2)ccc1OCC(=O)NC(C)(C)C | 0.95 | 0.5
CC(=O)Nc1ccc(-c2csc(NC(=O)Cc3ccccc3F)n2)cc1 | 1.1 | 1.2
CCOC(=O)c1c(NC(=O)CCC(=O)N2CCOCC2)sc2c1CC(C)(C)OC2 | 0.78 | 0.27
CCN1CCN(C(=O)c2ccc(CN(c3ccccc3)S(=O)(=O)c3ccccc3)cc2)CC1 | 0.69 | -1.5
COC(=O)C1=C(C(=O)c2ccccc2)C(c2ccc(OC)c(OC)c2)Nc2nnnn21 (centres undefined) | 0.67 | -1.9
c1ccc2nc3[nH]cnc3nc2c1 | 2.4 | 0.05
COC(=O)Cn1cnc2c1c(=O)n(C)c(=O)n2C | 0.76 | 0.16
O=C(OCCCN=C1NS(=O)(=O)c2ccccc21)c1ccccc1 | 0.56 | -0.03
Cc1cc(C)c2oc(C(=O)Nc3ccc(S(=O)(=O)Nc4nccc(C)n4)cc3)cc(=O)c2c1 | 0.02 | 0.23
C/C(=N\Nc1ccc(S(N)(=O)=O)cc1[N+](=O)[O-])c1ccc2c(c1)OCO2 | 0.12 | 1.2
O=C(c1c[nH]c(C(=O)C(Cl)(Cl)Cl)c1)c1c(F)cccc1F | 0.18 | 0.53
CC(=O)Nc1cccc2ncccc12 | 2.4 | -0.14
COCCNC(=O)Cc1c(C)c2c(cc(C)c3c(C(C)(C)C)coc32)oc1=O | 0.02 | -2.3
CCN(CC)S(=O)(=O)c1cc(NC(=O)C2=COCCO2)ccc1Cl | 0.55 | -0.38
C/C=C(\C)C(=O)NCCN1C2=NC[C@@H](C)N2C[C@@H]1Cc1ccc(OC)cc1 | 1.4 | 2.7
CCOC(=O)Nc1ccc(S(=O)(=O)N2CCOCC2)cc1 | 0.54 | 0.01
CC1CC2=C(NC(=S)NC2c2ccc(F)cc2)/C(=C/c2ccc(F)cc2)C1 (centres undefined) | 2.6 | -0.22
Cc1cc(NC(=O)OC2CCCCC2)ccc1[N+](=O)[O-] | 0.89 | -0.51
CCOC(=O)CSc1nnc(-c2ccc3ncccc3c2)n1C | 2.7 | 0.13
O=C(O)c1ccccc1C1Nc2ccccc2C(=O)N1CCCN1CCOCC1 (centres undefined) | 0.03 | -0.77
CCCCn1c(SCC(=O)/C(C#N)=C(\C)N)nc2ccccc2c1=O | 4 | 1.1
CCCOc1ncnc2c1[nH]c1ccc(OC)cc12 | 1.3 | 0
COc1ccc(NC(=O)c2cccnc2SC)cc1OC | 1.6 | -0.02
Cc1ccc(OCc2n[nH]c(=S)n2-c2ccc(C)cc2)cc1 | 1.2 | -2.4
COc1cc(CC(=O)OCn2nnc3ccccc3c2=O)cc(OC)c1OC | 0.1 | 2.2
O=C(NC1CCCCC1)C1c2ccccc2C(=O)N1Cc1ccco1 (centres undefined) | 0.8 | 0.13
CCCC(=O)N1CCN(c2nc3ccc(Cl)cc3s2)CC1 | 1.1 | -0.05
COc1ccc(/C=C(\C#N)C(=O)OCC(=O)NCc2ccccc2)cc1 | 0.28 | 0.83
CCCNC(=O)/C=C/C(=O)O | 0.94 | 2.2
COc1cc(CCCN2C(=O)C(=O)NC[C@H]2Cc2cccc3ccccc23)cc(OC)c1OC | 9.6* | 0.55*
Cc1ccn2c(c1)nc(=O)c1cc(S(=O)(=O)N3CCCCC3)ccc12 | 0.92 | -0.05
CCOC(=O)CC1C(=O)NCCN1C(=O)c1ccc(F)cc1F (centres undefined) | 0.83 | -1.6
NS(=O)(=O)c1ccc(S(=O)(=O)N(Cc2ccccc2F)CC2CCCO2)cc1 (centres undefined) | 0.01 | -2.4
CC1CCN(C(=O)CN(Cc2ccccc2)S(C)(=O)=O)CC1 | 0.29 | -1.1
Cn1c(N)c(C(=O)COC(=O)C23CC4CC(CC(C4)C2)C3)c(=O)n(C)c1=O | 1.3 | -2.6
Cc1ccc(NC(=O)C2CCN(S(=O)(=O)c3ccc4c(c3)NC(=O)CO4)CC2)cc1C | 1.1 | -0.13
O=C(Nc1cccc(C(=O)O)c1)/C(=C\c1ccco1)NC(=O)c1ccccc1 | 0.48 | 1.3
COc1ccc(S(=O)(=O)NCC2CCCO2)cc1NC(=O)c1ccc(Cl)cc1 (centres undefined) | 0.5 | 0.27
CCN1C(Nc2ccccc2)=NC[C@@H]1C | 0.77 | 2
CC(C)CCNc1ncnc2c1nnn2Cc1ccccc1 | 0.2 | -2.5
CCC(=O)c1ccc(OCC(=O)NCC2(N3CCCCC3)CCCCC2)cc1 | 0.24 | 3
CCOC(=O)c1c(NC(=S)NC(=O)c2ccco2)sc2c1CCCC2 | 0.08 | -0.67
COc1cccc(OC)c1C(=O)NC(=O)Nc1c(C)cccc1C | 0.29 | -1.1
CCOC(=O)C1=C(N)Oc2c(oc(CO)cc2=O)C1c1ccc(F)cc1 (centres undefined) | 1.4 | 0
CCN1CCN(c2cc(C)nc(-c3ccccc3O)n2)CC1 | 1.8 | -0.21
O=C1CC(c2cccs2)c2ccc3ccccc3c2N1 (centres undefined) | 1.2 | -0.02
CC(CNS(=O)(=O)c1ccccc1)(c1ccccc1)N1CCCCC1 (centres undefined) | 0.17 | 0.94
COc1ccc2ccccc2c1/C=N/NC(=O)c1nnn(-c2nonc2N)c1CN(C)C | 0.23 | -0.46
CCCNC(=O)COC(=O)c1cc(C)nc2ccccc12 | 0.94 | -0.64
COc1ccc(/C=N/NC(=O)C(N)=O)c(OC)c1OC | 0.81 | 0.82
Cc1c(C(N)=O)sc2ncn(CCOc3ccccc3)c(=O)c12 | 0.76 | 0
Cc1cccc(-n2c(-c3ccco3)n[nH]c2=S)c1 | 0.92 | 0.41
C=CCc1cccc2cc(C(=O)NNC(=O)c3ccncc3)c(=O)oc12 | 0.31 | 1.1
COc1ccc(NC(=O)c2sc3ncn(CC(=O)N4CCN(c5ccccn5)CC4)c(=O)c3c2C)c(OC)c1 | 1.3 | 0.02
CCCN1C(=O)/C(=C/c2cc(C)n(C)c2C)SC1=Nc1ccc(OCC)cc1 | 0.36 | 0
COc1ccc(CN(C)C(=O)c2cc(S(=O)(=O)N3CCOCC3)ccc2N2CCCC2)cc1 | 0.09 | 0.32
Cc1cc2cc(CNC(=S)Nc3ccc(OC(F)(F)F)cc3)ccc2[nH]1 | 1 | 0.5
O=C(N/C(=C\c1ccco1)C(=O)N1CCOCC1)c1ccccc1Cl | 0.36 | 1.7

# Next part:
molecule	KCNQ2 pot	KCNQ2 pot baseline
Cc1cc(C(=O)CCC(=O)Nc2ncccc2O)c(C)s1	2	0.31
COc1ccc(CCCc2nnc(SCC(=O)Nc3nccs3)n2C)cc1C	1.3	0.33
Cc1cc(NC(=O)CN2CCN(C)CC2)no1	0.69	0.55
CCC(=O)Nc1ccc(F)c(Cl)c1	0.25	0.27
CCOc1ccc(NC(=O)CSc2nc3nc(C)cc(C)n3n2)cc1	0.84	-0.16
O=c1c(C(c2ccc(F)cc2)c2c(O)nc3n(c2=O)CCS3)c(O)nc2n1CCS2	0.56	0.24
Cc1ccc2nc(CNC(=O)C3CCC(=O)N(Cc4ccccc4F)C3)cn2c1 (centres undefined)	0.75	-1.4
COc1ccc(COc2ccc3c(C)cc(=O)oc3c2)cc1	0.21	-0.47
COc1ccc(C)cc1S(=O)(=O)N1CCN(S(=O)(=O)c2cc(C(=O)O)ccc2C)CC1	0.57	-0.4
Cc1nc2cc(-c3ccccc3)nn2c(C)c1CCC(=O)NCc1ccco1	0.05	-0.24

# Structural class, those above containing a COOH group (four)
molecule	KCNQ2 pot	KCNQ2 pot baseline
O=C(O)c1ccccc1C1Nc2ccccc2C(=O)N1CCCN1CCOCC1 (centres undefined)	0.03	-0.77
CCCNC(=O)/C=C/C(=O)O	0.94	2.2
O=C(Nc1cccc(C(=O)O)c1)/C(=C\c1ccco1)NC(=O)c1ccccc1	0.48	1.3
COc1ccc(C)cc1S(=O)(=O)N1CCN(S(=O)(=O)c2cc(C(=O)O)ccc2C)CC1	0.57	-0.4

# (cont.)
molecule	KCNQ2 pot	KCNQ2 pot baseline
Cc1cc(C(C)(C)C)n2nc(C)c(-c3ccccc3)c2n1	2.1	0.47
CC(C)(Oc1ccc(Cl)cc1)C(=O)O/N=C(\N)c1ccncc1	0.23	2
COc1ccc(CNC(=O)c2c(C)nc3ccccn23)cc1	1.8	0.05
Cc1ccc(S(=O)(=O)N(C)CC(=O)N2CCN(Cc3ccccc3)CC2)cc1	0.28	-0.69
Cc1ccc(NC(=S)NCc2ccc3c(c2)OCO3)cc1C	4.9	-0.01
CCOC(=O)c1nn(-c2ccc(C)cc2)c(=O)cc1OCC(=O)Nc1cccc(OC)c1	1.2	-0.32
O=C(NCc1ccco1)c1ccc2c(=O)n(CC3CCCO3)c(=S)[nH]c2c1 (centres undefined)	0.44	-0.66
Cc1nc2ccccc2c(=O)n1NC(=O)Nc1ccccc1	0.38	-3
CC(C)OP(=O)(OC(C)C)C(Nc1ccccc1)c1cccc([N+](=O)[O-])c1 (centres undefined)	0.04	0.33
CCOc1cc(C)c(Cl)cc1S(=O)(=O)N(CC)CC	3.9	0.2
CC1CCCCC1NC(=O)C1CCN(S(=O)(=O)c2cccc3nonc23)CC1 (centres undefined)	0.25	1.2
CN(CC(=O)NCC1CCCO1)S(=O)(=O)c1cc(Cl)ccc1Cl (centres undefined)	0.01	1.9
O=C(/C(Br)=C/Nc1cc(Cl)ccc1Cl)C(F)(F)F	0.08	-0.53
O=C(NCC1CCCO1)c1cc([N+](=O)[O-])ccc1Cl (centres undefined)	0.39	0.1
O=C(O)c1ccc(NS(=O)(=O)c2ccc3nnn(O)c3c2)cc1	0.41	-0.37
CC(C)c1cc(NCC2CCCO2)n2c(nc3ccccc32)c1C#N (centres undefined)	0.16	-0.78
O=C(CN1CCN(C(=O)c2cccs2)CC1)NC1CCCCC1	0.8	-0.43
Cc1cc(C(=O)Nc2ccc3c(c2)OCCO3)ccc1[N+](=O)[O-]	0.64	-0.31
CC(N=c1ccccn1C(=O)Nc1ccc(Cl)cc1)c1ccco1 (centres undefined)	0.53	-1.8
C=CCOc1c(Br)cc(C2C3=C(CCCC3=O)N(C)C3=C2C(=O)CCC3)cc1OCC	1.1	-1.1
CCn1ncc(/C=N/N=C2\CCC3C4CCc5cc(O)ccc5C4CCC23C)c1C (centres undefined)	0.94	-0.16
C=CCCCCCCCCC(=O)Nc1ncccn1	1.1	1.2
COc1ccc(CN(CC2CCCO2)S(=O)(=O)c2ccc(-n3cnnn3)c(OC)c2)cc1 (centres undefined)	1.2	1.5
CC(C)NC[C@@H](O)COc1cccc2ccccc12	0.12	0.73
N#CCCN1CCN(S(=O)(=O)c2ccc(S(=O)(=O)N3CCOCC3)cc2)CC1	0.62	2.8
Cc1cn2c(nc1=O)OC1C(O)C(COC(=O)c3ccccc3)OC12 (centres undefined)	0.1	0.05
COc1ccc(/C=C(/NC(=O)c2ccccc2)C(=O)N2CCCC2)cc1OC	0.35	0.05
NS(=O)(=O)c1ccc(CCNC(=O)Cc2c[nH]c3ccccc23)cc1	1.4	-1.6
COCCCN1C(=O)N(c2ccccc2)C(=O)C1CC(=O)Nc1ccccc1 (centres undefined)	0.38	0.12
Cc1cc(Br)ccc1OCC(=O)NNC(=O)c1ccc(NC(=O)C2CC2)cc1	0.89	0.32
COc1ccc(/C=C/C(=O)Oc2cccc(/C=N/NC(=O)Cc3ccc(Br)cc3)c2)cc1	0.01	-0.42
Cc1cccc(-n2cnc3cc([N+](=O)[O-])ccc32)c1	0.46	0.82
COc1ccc2nc(N/C(N)=N/S(C)(=O)=O)nc(C)c2c1	2.3	0.3
NC(=O)c1ccccc1NS(=O)(=O)c1cccs1	0.54	0.26
CCOC(=O)N1CCC(NC(=O)c2cc3c(=O)[nH]c4ccccc4c3n2C)CC1	2.3	-2.1
O=C(O)CC1(c2ccc(F)cc2)C2CC3CC(C2)CC1C3 (centres undefined)	0.09	-0.51
O=C(CCCN1C(=O)C(c2ccccc2)Oc2cccnc21)Nc1cccc(F)c1 (centres undefined)	0.19	-0.52
CCC(C)N(C)C1CCN(C(=S)Nc2cccc(OC)c2)CC1 (centres undefined)	0.21	-0.03
O=C(COc1ccc2c3c(c(=O)oc2c1)CCCC3)NCCCN1CCOCC1	0.13	-0.57
COCCCN1C(=O)C(=O)/C(=C(/O)c2ccc(OC(C)C)cc2)C1c1cccnc1 (centres undefined)	1.5	-0.39

# One compound at a time (already shown). Order of values: KCNQ2 pot, KCNQ2 pot baseline
# Profile of `CCC(C)N(C)C1CCN(C(=S)Nc2cccc(OC)c2)CC1` (centres undefined) : 0.21, -0.03
# Profile of `O=C(O)CC1(c2ccc(F)cc2)C2CC3CC(C2)CC1C3` (centres undefined) : 0.09, -0.51
# Profile of `COc1ccc2nc(N/C(N)=N/S(C)(=O)=O)nc(C)c2c1` : 2.3, 0.3
# Profile of `Cc1cccc(-n2cnc3cc([N+](=O)[O-])ccc32)c1` : 0.46, 0.82
# Profile of `COCCCN1C(=O)C(=O)/C(=C(/O)c2ccc(OC(C)C)cc2)C1c1cccnc1` (centres undefined) : 1.5, -0.39

# The list continues:
molecule	KCNQ2 pot	KCNQ2 pot baseline
CCCCNC(=O)C1CC(c2c(Cl)cccc2Cl)=NO1 (centres undefined)	0.08	-1.6
C=CCOc1ccc(Cl)cc1C(=O)O	0.47	1
Cn1c(CNc2cccc(C(F)(F)F)c2)n[nH]c1=S	0.09	-2.3
NCC(=O)NCC(=O)OCc1ccccc1	0.46	0.99
C#CCSc1nccc(-c2nn(-c3ccc(C)cc3)ccc2=O)n1	0.28	-1.1
CSc1nc(C)c2c(n1)N(c1cccc(C)c1)CC2	1.9	-0.58
OCCC1CN(Cc2cccn2-c2ncccn2)CCN1CCc1ccccc1 (centres undefined)	0.16	1.6
